NS1 function inh = blocks influenza NS1 protein function. AID 2326. 270,000 compounds, 0.4% hits. S. cerevisiae slowed by influenza A NS1, growth recovery by OD600. Potency, µM (series often up to 46.1 µM), for inactives: top-dose activity, positive = more growth; note: actives are rising curves; nearly all actives have a fitted effect of over 50% in size
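Recovery from NS1-induced slow growth read by OD600 in budding yeast switched to galactose assay medium (pH 6.0, -URA) at 1:100 dilution. Compound 23 nl per well; the matching strain lacking NS1 serves as control.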
Marburg entry inh = inhibitors of Marburg virus binding or cell entry; Potency, µM (top dose mostly 37.8 µM), without a hit: at the highest dose activity change, negative = inhibition, most hits filed as inhibitors; Marburg virus pseudotyped entry inhibition, cell reporter; control for the full effect not named in the record; about a third of the inactives were read at about 46 µM; AID 540276; 300,000 compounds, 1.8% hits; active = well fitted inhibition curve with a large enough effect; inconclusive = small, poorly fitted or top-dose-only effect, or effect the other way; inactive = flat fitted curve, though single readings scatter; tested in HEK293 cells; about a fifth of its hits are not listed in these tables; note: % is set by controls: 0 for no effect and ±100 for the full control effect; luciferase read-out
LASV entry inh = blocks Lassa virus binding to or entry into cells. 300,000 compounds, 1.2% hits. Potency, µM (titrated, usually from 37.9 µM), inactives show at the highest dose activity change, negative = inhibition, hits mostly inhibitors. Lassa virus pseudotype entry inhibition, cell reporter; control for the full effect not named in the record; active means well fitted inhibition curve with a large enough effect; inconclusive means small, poorly fitted or top-dose-only effect, or effect the other way; inactive means flat fitted curve, though single readings scatter; tested in HEK293 cells; note: % is set by controls: 0 for no effect and ±100 for the full control effect; nearly all actives have a fitted effect of over 50% in size; luciferase read-out
Cruzain inh Det = cruzain (T. cruzi) inhibition with detergent | P25779 | purified cruzain, Z-FR-AMC fluorescence, 0.01% Triton | Potency, µM, inactives show max response, negative = inhibition, usual class: inhibitors | 200,000 compounds, 0.43% hits | AID 1478; active = well fitted curve in the direction sought with a large enough effect; inconclusive = small, poorly fitted or top-dose-only effect, or another doubt; inactive = no such curve, though single readings can be large; an effect the other way counts as inactive or inconclusive;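 note: plate controls were neutral wells for no effect and buffer without enzyme for full effect; nearly all actives have a fitted effect of over 40% in size; top concentration of the series not given in the record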
Target sequence (P25779 123-467 limits assumed): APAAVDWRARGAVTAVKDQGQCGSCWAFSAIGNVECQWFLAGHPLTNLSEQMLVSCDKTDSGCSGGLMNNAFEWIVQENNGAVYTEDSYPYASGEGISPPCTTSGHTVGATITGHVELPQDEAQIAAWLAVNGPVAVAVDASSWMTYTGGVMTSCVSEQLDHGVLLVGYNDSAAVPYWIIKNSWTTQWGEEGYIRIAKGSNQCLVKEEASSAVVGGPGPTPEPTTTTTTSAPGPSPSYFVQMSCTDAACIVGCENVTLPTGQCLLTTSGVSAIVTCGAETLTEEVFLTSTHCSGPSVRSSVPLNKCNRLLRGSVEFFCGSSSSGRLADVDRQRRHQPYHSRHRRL
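Detergent-containing run (0.01% Triton X-100) in acetate buffer pH 5.5 with 5 mM DTT: enzyme at 1.5 nM final, 15 min compound preincubation at room temperature, then 2 uM Z-FR-AMC substrate. Activity taken as 60 s fluorescence increase at 360/450 nm.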
2A StopGo = lowers the luciferase signal of an FMDV 2A StopGo reporter; Potency, µM (doses to about 57.9 µM), inactives show at the top dose signal change, negative = less light; AID 1159524; human cells with a luciferase reporter of 2A StopGo recoding; control for the full effect not named in the record; 410,000 compounds, 1.2% hits; active = well fitted falling curve with a large enough effect; inconclusive = small, poorly fitted or top-dose-only effect; inactive = no such curve, though single readings can be large or run the other way; tested in HEK293T cells; note: % is set by controls: 0 for no effect and ±100 for the full control effect; nearly all actives have a fitted effect of over 45% in size; luciferase light after 4 h
SARS PLP yeast = inhibitors of SARS-CoV papain-like protease in yeast; S. cerevisiae expressing SARS-CoV PLpro, growth rescue; control for the full effect not named in the record; Potency, µM (doses to about 32.9 µM), inactives show top-dose activity, positive = growth rescue; 330,000 compounds, 0.19% hits; note: 0% is about no effect; nearly all actives have a fitted effect of over 55% in size; growth read by luminescence after 48 h
Cruzain inh noDet = inhibitors of Trypanosoma cruzi cruzain without detergent; P25779; purified cruzain, Z-FR-AMC fluorescence, no detergent; Potency, µM, inactives show max response, negative = inhibition, actives largely listed as inhibitors; 200,000 compounds, 2.3% hits; AID 1476; active = well fitted curve in the direction sought with a large enough effect; inconclusive = small, poorly fitted or top-dose-only effect, or another doubt; inactive = no such curve, though single readings can be large; an effect the other way counts as inactive or inconclusive;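 note: plate controls were enzyme without inhibitor for no effect and buffer without enzyme for full effect; nearly all actives have a fitted effect of over 40% in size; top concentration of the series not given in the record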
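Purified cruzain at 1.5 nM, pre-incubated 15 min with compound at room temperature in 100 mM sodium acetate pH 5.5, 5 mM DTT, 0.00005% Triton X-100. Reaction started with 2 uM Z-FR-AMC; AMC fluorescence increase over 60 s gives rate.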
RE007 growth inh = less growth of the S. pombe RE007 Vpr strain; S. pombe RE007 Vpr strain, BacTiter-Glo ATP luminescence, 24 h; control for the full effect not named in the record; Potency, µM (doses to about 92.2 µM), for the others: at the top dose activity change, negative = less growth; 360,000 compounds, 0.21% hits; AID 651644; active = well fitted falling curve with a large enough effect; inconclusive = small, poorly fitted or top-dose-only effect; inactive = no such curve, though single readings can be large or run the other way;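 note: % is set by controls: 0 for no effect and ±100 for the full control effect; nearly all actives have a fitted effect of over 50% in size; the assay follows cell death caused by Vpr and the record does not say whether a fall means rescue or toxicity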
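Fission yeast strain RE007, carrying one chromosomally integrated HIV-1 vpr copy, was seeded at OD 0.01 in PMG+AL medium with 23 nL pinned compound. After 24 h at 30 °C and 99% humidity, viability was read by BacTiter-Glo luminescence.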
Active calls of the source: *; ? = inconclusive; . = no result given; [ ] = dose if it differs, or a comment. Unless noted, calls come from the whole dose curve; as a rule, active means well fitted rising curve with a large enough effect; inconclusive means small, poorly fitted or top-dose-only effect; inactive means no such curve, though single readings can be large or run the other way. Potency is the fitted concentration of half-maximal effect. Compounds were not picked by outcome, and some 4.7% of all compounds hit somewhere here.

Molecule,NS1 function inh,Cruzain inh noDet,Cruzain inh Det,SARS PLP yeast,Marburg entry inh,RE007 growth inh,LASV entry inh,2A StopGo
COC(=O)C1=CN(c2ccc(F)cc2)C=C(C(=O)OC)C1c1cccc([N+](=O)[O-])c1,7%,.,.,-1%,?,11%,?,-17%
COc1ccc(OC)c(-c2csc(NC(=O)Cc3ccccc3F)n2)c1,-25%,.,.,-38%,?,-10%,?,49%[activator]
O=C(COC(=O)[C@H](Cc1ccccc1)NC(=O)c1ccco1)NCc1ccccc1,-14%,-3%,-14%,3%,?,7%[3.69 µM],-2%,-3%
COc1cc(-c2nnc(SCCOc3ccc(Cl)cc3C)o2)cc(OC)c1OC,.,9%,-6.9%,.,?,.,-3%[46.1 µM],-6%
CC[C@@H](C)C(NC(=O)OC(C)(C)C)c1cn([C@@H](Cc2cc3ccccc3[nH]2)C(=O)N2CCN(C(=O)OC(C)(C)C)CC2)nn1 (stereo not given in full),5%,.,.,0%,.,1%,.,?
CC(CCc1ccco1)NC(=O)CCc1nnc2ccc(NCc3ccccc3)nn12 (stereo not given),6%,.,.,?,.,15%,.,-7%
Cc1cc(C)cc(N2C(=O)CSC23C(=O)N(CC(=O)Nc2ccc(F)cc2F)c2ccccc23)c1 (stereo not given),.,-10%,-2.2%,.,.,.,-8%[46.1 µM],-7%
COC(=O)C1(S(=O)(=O)C2(C(=O)OC)CCCC2)CCCC1,2%,12%,1.0%,0%,-10%,8%,8%,3%
CCC(C)[C@H](NC(=O)N1CCN(C)CC1)C(=O)OC (stereo not given in full),2%,-4%,2.8%,-2%,?,.,-5%,-13%
COCCCNC(=S)N1CCN(S(=O)(=O)c2ccc(OC)cc2)CC1,2%,.,.,1%,?,22%,?,-20%
O=C(c1ccc2snnc2c1)N1CCSCC1,-1%,-9%,1.1%,?,-9%,19%,10%,-12%
CCCCOC(=O)c1sc2nc(N3CCOCC3)c3c(c2c1N)CC(C)(C)OC3,0%,.,.,1%,.,2%,.,-19%
CCCCN(C)C(=O)C1CCC(CNS(=O)(=O)c2ccc3c(c2)CC(C)N3C(=O)C2CC2)CC1 (stereo not given),0%,.,.,-1%,.,3%,.,?
O=C(c1cc(COc2c(F)cccc2F)on1)N1CCC(c2ccccc2Cl)C1 (stereo not given),9%,.,.,-1%,?,1%,0%,55%[activator]
CCOc1ccc(Nc2oc(/C=C/c3cccc(OC)c3)nc2C#N)cc1,.,?,-1.7%,.,7%[46.1 µM],.,0%[46.1 µM],-14%
CC(C(=O)O)n1cnc2sc3c(c2c1=O)CCCC3 (stereo not given),0%,.,.,1%,-3%[46.1 µM],3%,-3%[46.1 µM],2%
CCOC(=O)C1=C(C)Nc2nc(C)nn2C1c1ccc(OCC)c(OC)c1 (stereo not given),6%,.,.,2%,.,-5%,.,22%
Cc1cc(N2C(=O)C3CCCN3C2c2ccccc2)no1 (stereo not given),5%,0%,2.9%,2%,-7%,13%,-9%,9%
COc1ccc(Cl)cc1S(=O)(=O)N1CCC(C(=O)NCC2CCCO2)CC1 (stereo not given),-11%,.,.,1%,?,-12%,1%,-6%
CCCOc1ccc(/C=N/Nc2ccccn2)cc1OC,.,.,.,2%,?,-1%,23%,58%[activator]
COc1ccc(S(=O)(=O)N(CC(=O)N/N=C/c2cccs2)c2ccc(C)cc2)cc1OC,?,21%,-3.1%,-1%,?,4%,?,-10%
CN(CC(=O)Nc1ccccc1C(=O)N1CCCC1)S(=O)(=O)c1ccc(Cl)cc1,2%,8%,-1.7%,14%,-10%,7%,10%,3%
Cc1ccc(Cn2c(=O)c3c(ncn3C)n(C)c2=O)cc1,0%,.,.,-4%,-5%,41%,1%,-2%
S=C(c1ccc(-c2ccccc2)o1)N1CCCCC1,-5%,.,.,-3%,?,-12%,?,22%
O=C(NCC1CCCO1)c1ccc(COc2ccc(F)cc2)o1 (stereo not given),-4%,-23%,?,2%,-12%,2%,?,.
CC(=O)c1c(O)c(C)c(-c2ccccc2)n(-c2ccccc2)c1=O,-2%,7%,-0.8%,3%,-25%[46.1 µM],7%,2%,-10%
Cc1ccc(C)c(NC(=S)NNC(=O)c2sccc2C)c1,-4%,11%,3.6%,1%,-1%,2%,?,82%[activator]
COc1ccc(NC(=O)CN2C(=O)C(C)Oc3ccc(C)cc32)cc1 (stereo not given),16%,.,.,-3%,-30%,6%,?,-19%
CCCc1ccc2oc(C(=O)NCc3nnc(C)o3)c(C)c2c1,-17%,.,.,-4%,-29%[46.1 µM],7%,?,39%[activator]
O=C(O)CCC(=O)NNC(=O)CCCOc1ccc(Cl)cc1Cl,12%,-9%,2.2%,0%,-5%,-1%,-5%,-7%
COc1ccccc1NC(=O)CSc1oc(-c2ccccc2)nc1S(=O)(=O)c1ccccc1,.,?,-5.6%,.,?,.,-28%[46.1 µM],-15%
CCN(C(=O)c1cccs1)c1nnc(-c2ccncc2)s1,-10%,-15%,-5.9%,-1%,-19%[46.1 µM],-7%,-8%,11%
COC(=O)/C=C1\SC(N)=NC1=O,6%,.,.,0%,.,21%,.,-16%
O=C(Nc1ccc(Cl)cc1)NC1(C(=O)NCCCN2CCOCC2)CCCCC1,-6%,4%,2.3%,2%,4%,-4%,1%,4%
COC(=O)CSc1nc2c(c(=O)n(C)c(=O)n2C)n1CCC(C)C,-10%,-2%,-6.3%,5%,6%,9%,-2%,?
NC(=S)NN=C1CCC2(CCCCC2)CC1,.,.,.,.,?,-11%,7%,-9%
Cc1c(NC(=O)COC(=O)CSc2ccc([N+](=O)[O-])cc2)c(=O)n(-c2ccccc2)n1C,.,.,.,-1%,12%,9%,-6%,-19%
CCC(=O)N1c2ccccc2CC1C(=O)NCCc1ccc(SC)cc1 (stereo not given),.,7%,0.6%,.,.,.,12%[46.1 µM],-12%
COc1cc2[nH]c(Cl)c([N+](=O)[O-])c2cc1OC,8%,.,.,9%,-28%,5%,4%,?
O=S(=O)(NCC(c1cccs1)N1CCc2ccccc2C1)c1ccccc1 (stereo not given),.,.,.,0%,-22%[46.1 µM],-14%,8%,2%
O=C(O)C1C2C=CC(C2)C1C(=O)NCc1ccccn1 (stereo not given),2%,1%,-0.3%,3%,-3%,.,.,.
CCc1ccc(OCC(=O)Nc2c(C(=O)c3ccc(Br)cc3)oc3ccccc23)cc1,.,2%,-0.6%,.,-7%[46.1 µM],.,-1%[46.1 µM],-5%
COc1ccc(NC(=O)c2cccn(CC=C(C)C)c2=O)cc1,.,.,.,-1%,-14%[46.1 µM],-6%,2%,26%
COCCNC(=S)N/N=C(\C)c1ccccc1F,.,.,.,2%,1%[46.1 µM],-30%,0%,8%
CS(=O)(=O)N1CCN(C(=O)Cc2ccccc2Cl)CC1,2%,.,.,3%,4%[46.1 µM],-9%,10%,-12%
Cc1cccc(NC(=O)Nc2nnc(-c3ccccc3)o2)c1,.,.,.,3%,?,-3%,5%[46.1 µM],13%
Cc1nn(-c2ccccn2)c2c1-c1nc(N3CCOCC3)ncc1CC2,4%,29%,-7.5%,9%,-11%,-8%,-20%,-17%
O=S(=O)(c1ccc(Br)cc1)c1nnn2c1nc(NC1CCCCCC1)c1sccc12,.,-5%,0.1%,.,.,.,22%[46.1 µM],-23%
Cc1ccc(C(=O)Nc2nnc(S(=O)(=O)N(C)Cc3ccco3)s2)cc1,.,2%,-2.3%,.,.,.,-8%[46.1 µM],35%[activator]
CCCCN(CCCC)CC(O)Cn1c2ccccc2c(=O)c2ccccc21 (stereo not given),1%,.,.,0%,?,15%,12%[46.1 µM],-12%
CN1CCC(=NNC(=O)CN(c2ccc(Oc3ccccc3)cc2)S(C)(=O)=O)CC1,15%,-4%,-0.6%,8%,?,-10%,2%,-14%
CCOC(=O)N1CCN(C(=O)c2ccc3c(c2)N(Cc2ccccc2F)C(=O)c2ccccc2S3=O)CC1 (stereo not given),.,?,7.0%,.,4%[46.1 µM],.,-5%[46.1 µM],-9%
COc1cc(/C=C2\C(=O)NN(c3ccc(C)cc3)C2=O)cc([N+](=O)[O-])c1O,?,.,.,1%,?,-9%,1%,-9%
Cc1ccc(CC(=O)Nc2ccc3c(c2)N(C)C(=O)c2ccccc2S3)cc1,.,12%,4.5%,.,.,.,?,-17%
O=C(NC1CCC(O)CC1)c1cc(-c2ccco2)nc2ccccc12 (stereo not given),11%,.,.,-3%,.,14%,.,3%
O=c1cc(CSc2ccccc2)[nH]c2ccc(F)cc12,.,-6%,-6.6%,.,.,.,-13%[46.1 µM],-6%
Cc1ccc(C2(CCNCc3ccc(N(C)C)cc3)CCOC(C(C)C)C2)cc1 (stereo not given),-4%,.,.,0%,?,35%,?,-25%
COc1ccc(OC)c(C2=Nn3c(nnc3-c3cccc(OC(C)C)c3)SC2)c1,-66%,?,-6.3%,1%,?,9%,?,6%
